# Menin MLL FP FL: inhibitors of human menin-MLL interaction, wild-type MLL peptide; Fluorescence polarization, fluorescein-MLL peptide displacement from menin; FP activity change, % at 61.4 µM; 290,000 tested, under 10 active; AID 1766; inconclusive = falling polarisation curve, or a change in total fluorescence; inactive = total fluorescence flat and polarisation flat or rising; no compound was filed as active; the % refers to the polarisation; negative = inhibition;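 also: % of control where 0% means no effect; inhibitors lower the polarisation; unlabelled MLL peptide was the positive control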
# gsp ag: activates gsp, the McCune-Albright syndrome mutation | gsp mutant cells, cAMP HTRF, 30 min; control for the full effect not named in the record | Potency, µM (doses to about 76.9 µM), inactives show at the highest dose activation (cAMP increase), actives largely listed as activators | actives 0.13% (n = 340,000); active = well fitted activation curve with a large enough effect; inconclusive = small, poorly fitted or top-dose-only effect, or another doubt; inactive = no such curve, though single readings can be large or run the other way; cell line not stated here;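 also: phosphodiesterase inhibitor Ro 20-1724 added with compounds to block cAMP breakdown; potency is read from the fitted curve at half-maximal effect; nearly all actives have a fitted effect of over 60% in size; about a fifth of the inactives were tested at one dose only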
#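 Cells stably selected in G418 were plated at 2000/well, grown 16-24 hr, then given compounds in DMSO with the PDE inhibitor […] (300 uM solution added) for 30 min at 37C; cAMP was read by HTRF.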
# ClpP mod: qHTS Assay for Activators of ClpP | Potency, µM (highest dose often 57.5 µM), without a hit: top-dose activity change, negative = active | actives 1.9% (n = 340,000) | purified B. subtilis ClpP, FRET peptide cleavage, 20 min | ATP-dependent Clp protease proteolytic subunit (Bacillus subtilis (strain 168)), P80244; active = well fitted falling curve with a large enough effect; inconclusive = small, poorly fitted or top-dose-only effect; inactive = no such curve, though single readings can be large or run the other way; also: potency is read from the fitted curve at half-maximal effect; the source files actives as falling curves though it sought activators and does not explain the sign; nearly all actives have a fitted effect of over 65% in size; many hits overshoot -100%
# Target sequence (P80244 whole entry, looked up): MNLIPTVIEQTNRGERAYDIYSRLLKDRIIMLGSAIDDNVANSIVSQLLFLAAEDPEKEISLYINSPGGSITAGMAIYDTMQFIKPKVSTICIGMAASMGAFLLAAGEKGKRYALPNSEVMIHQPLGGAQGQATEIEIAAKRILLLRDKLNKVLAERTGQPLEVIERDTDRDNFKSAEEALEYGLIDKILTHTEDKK
#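 Buffer: 100 mM Tris/HCl pH8, 100 mM KCl, 0.05% low protease BSA, 2.5% glycerol, 0.01% Tween-20. ClpP 10 microg/mL final; 20 min RT; delta FRET normalized to ADEP and DMSO controls.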
# TRPML1 ag: human mucolipin-1 channel agonism; TRPML1-expressing cells, Ca2+ dye fluorescence, FDSS; host cell line not named in the record; reference of the full effect not given here; activation, % (test concentration not listed); actives 0.12% (n = 410,000); in the data active = activation above about 50%; inconclusive = about 30% to 50%; inactive = below about 30%; also: 0% is about no effect; the text of the record puts the active cut at 80%
# Target sequence (Q9GZU1 whole entry, looked up): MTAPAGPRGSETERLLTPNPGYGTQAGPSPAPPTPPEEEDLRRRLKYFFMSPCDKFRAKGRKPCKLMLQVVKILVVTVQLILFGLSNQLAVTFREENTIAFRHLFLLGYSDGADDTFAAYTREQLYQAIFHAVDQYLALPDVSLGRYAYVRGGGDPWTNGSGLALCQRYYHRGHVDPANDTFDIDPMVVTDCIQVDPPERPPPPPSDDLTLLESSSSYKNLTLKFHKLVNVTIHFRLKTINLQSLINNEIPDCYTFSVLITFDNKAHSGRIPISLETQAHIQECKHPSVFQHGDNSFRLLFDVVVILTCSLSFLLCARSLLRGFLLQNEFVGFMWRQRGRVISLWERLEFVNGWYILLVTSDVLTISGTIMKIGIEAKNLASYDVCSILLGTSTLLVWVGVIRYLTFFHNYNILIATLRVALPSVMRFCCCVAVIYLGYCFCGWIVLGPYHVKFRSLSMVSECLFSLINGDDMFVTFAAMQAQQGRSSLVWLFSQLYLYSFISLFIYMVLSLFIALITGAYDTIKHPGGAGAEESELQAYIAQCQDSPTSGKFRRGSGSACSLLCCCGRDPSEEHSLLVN
#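 Calcium fluorescence on an FDSS kinetic reader gave the read-out. Tet-induced TRPML1-DL cells were plated overnight, dye-loaded (Ca8 with quencher, 45-90 min, room temperature, dark), then read 110 s after compound addition, and again 110 s after 4uM final 54-4 (EC80).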
# TRPML1 blocker: human mucolipin-1 channel inhibition | Q9GZU1 | activity change, negative = inhibition, % (no concentration beside the values) | AID 624415 | actives 0.02% (n = 390,000) | TRPML1-inducible cells, Ca2+ dye fluorescence, FDSS; stronger effect = lower value; inhibition of EC80 agonist-evoked calcium signal; in the data active means activity change below about -50%; inconclusive means about -30% to -50%; inactive means above about -30%;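 also: stimulus is agonist 54-4 at its EC80 concentration; % is scaled to controls: 0 for no effect and ±100 for the full control effect; compound concentration not given in the record; the text of the record puts the active cut at -80%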
#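 Calcium fluorescence in TRPML1-DL cells induced overnight with Tet: a 110 s read after compound pin addition, then a 110 s antagonist read after challenge with 54-4 at 4 uM final (EC80).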
# gsp antag: antagonizes gsp, the McCune-Albright syndrome mutation; gsp-mutant cells, cAMP HTRF, 30 min; control for the full effect not named in the record; Potency, µM (top dose mostly 76.9 µM), for the others: at the top dose activity change, negative = inhibition, usual class: inhibitors; actives 0.4% (n = 340,000); AID 624288; active = falling curve of any shape with a large fitted effect; inconclusive = falling curve, mostly with a smaller effect; inactive = flat or rising curve; cell line not stated here;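 also: intracellular cAMP measured with PDE inhibitor Ro 20-1724 present during compound exposure; potency is read from the fitted curve at half-maximal effect; % is scaled to controls: 0 for no effect and ±100 for the full control effect; nearly all actives have a fitted effect of over 65% in size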
#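 G418-selected cells were plated in DMEM/10% FBS for 16-24 h at 37C, then treated with compounds plus the PDE inhibitor […] (300 uM solution added) for 30 min at 37C. Intracellular cAMP was measured by HTRF after 30 min lysis at room temperature.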
# An asterisk follows results filed as active; u = inconclusive; x = no result given; & = joins results of further samples; [ ] = dose if it differs, or a comment.
# Order of results: ClpP mod	TRPML1 ag	TRPML1 blocker	Menin MLL FP FL	gsp antag	gsp ag
CCOC(=O)c1[nH]c(C)c(C(=O)N2CCc3c([nH]c4ccccc34)C2c2ccccn2)c1C (stereo unspecified)
  0.9%	1.8	-2	-4.0	u	11%
Cc1ccc(S(=O)(=O)N2[C@@H](c3cccc(Cl)c3)C(C(=O)O)=CC[C@H]2c2ccc3c(c2)OCO3)cc1
  -1.1%	-0.2	-9	x	-17%	-8%
CCCSCCCNC(=O)Cn1nc(CC)n2c(cc3c(OC)cccc32)c1=O
  3.5%	1.2	-5	-2.5	3%	17%
CCC(/C=N/NC(=O)CCCCC(=O)N/N=C/C(CC)CC)CC
  x	-0.1	-3	3.2	8%	14%
Cn1c(SCc2c(F)cccc2Cl)nnc1-c1cnccn1
  3.5%	-1.1	3	-1.3	6%	0%
Cn1nc(C(=O)NC2CCCc3ccccc32)ccc1=O (stereo unspecified)
  x	0.1	-4	-0.1	7%	u
Brc1ccc(-c2nnc3n2C2(CCCC2)Cc2ccccc2-3)o1
  -16%	3.9	1	5.4	-12%	-26%
COc1cccc(C2C(C(=O)Nc3ccc(C)cc3C)=C(C)Nc3c(C(=O)Nc4cccc(C)c4)cnn32)c1OC (stereo unspecified)
  0.9%	3.4	-2	x	x	x
CC(=O)c1ccc(NC(=O)c2noc3c2CCC3)cc1
  -2.3%	x	x	1.3	4%	26%
CCOC(=O)CSc1ccc(S(=O)(=O)N2CCCCC2)cc1[N+](=O)[O-]
  -0.3%	-0.7	9	-0.2	-23%	1%[15.4 µM]
Cc1cc(-c2n[nH]c(=S)n2/N=C/c2cccs2)n[nH]1
  1.3%	-0.4	4	0.0	-11%	0%
O=C1CC(c2c[nH]c3ccccc23)C(=O)N1 (stereo unspecified)
  -0.9%	-0.4	3	-1.0	4%	-3%
CC(C)c1ccc(NC(=O)COC(=O)COc2ccccc2)cc1
  x	2.1	11	0.6	7%	-4%[15.4 µM]
COc1cc(/C(C)=N/N2CCOCC2)cc(OC)c1OC
  0.6%	2.5	2	5.3	4%	18%
Cc1ccc(CNC(=O)C2CCCN(C(=O)Nc3ccc(F)cc3)C2)cc1 (stereo unspecified)
  x	-0.4	-1	-4.0	x	3%[15.4 µM]
CCOC(=O)C1=NNC(C(=O)c2ccc(C)cc2)C1c1ccc(C)cc1 (stereo unspecified)
  -3.3%	3.6	42	2.3	9%	u
CCCCOc1ccc(C(=O)N2CCCCCC2)cc1
  -2.7%	1.4	32	3.6	5%	19%
O=C(NCCN1CCCCC1)c1ccc(Cn2c(SCc3ccccc3)nc3cccnc32)cc1
  u	0.6	-5	x	x	x
O=C(CCc1nc2ccccc2c(=O)[nH]1)Nc1cccc(S(=O)(=O)N2CCOCC2)c1
  x	-0.7	6	x	8%	3%[15.4 µM]
CC1(c2ccc3ccccc3c2)NC(=O)N(CC(=O)N2CCN(c3ccccc3O)CC2)C1=O (stereo unspecified)
  -5.2%	0.1	-5	x	-1%	0%[15.4 µM]

# More results follow.
# Order of results: ClpP mod	TRPML1 ag	TRPML1 blocker	Menin MLL FP FL	gsp antag	gsp ag
CCOC(=O)/C(=N/Nc1ccc(C)cc1)S(=O)(=O)c1ccc(Cl)cc1
  1.1%	2.5	83	-1.3	3%	-42%
CCCCN(CCCC)C(=O)c1cc2c(=O)n3cccc(C)c3nc2s1
  4.8%	1.8	21	x	x	x
O=S(=O)(N1CCCCC1)n1nnc2ccccc21
  -0.1%	-0.7	11	5.3	-1%	-16%
CC(=O)C(C)n1cnc2scc(-c3ccc(C)cc3)c2c1=O (stereo unspecified)
  2.2%	x	x	-3.8	-9%	-38%[inhibitor]
O=[N+]([O-])c1ccccc1-c1ccc(/C=N/n2cnnc2)o1
  -0.1%	0.3	13	2.3	-2%	1%
CC1c2cccn2CCN1S(=O)(=O)c1ccccc1 (stereo unspecified)
  -2.4%	-0.4	13	x	3%	-34%[inhibitor]
NC1=NC2=C(CCCC2)C2(CCCCC2)S1
  -1.9%	0.8	10	2.0	2%	4%
CCC1(C)Cc2c(sc3c2c(=O)n(C)c2nnc(SCc4ccc5c(c4)OCO5)n32)CO1 (stereo unspecified)
  -3.3%	0.7	24	4.5	-16%	10%
Cc1cccc(NC(=O)c2ccc(Cl)nc2)n1
  -2.4%	0.0	-2	-7.5	-3%	-37%[inhibitor]
CCCOc1ccccc1/C=N/Nc1ccnc(=O)[nH]1
  -3.7%	-0.9	-15	6.3	3%	0%[15.4 µM]
O=C(Nc1cccc(-c2csc(Nc3ccccc3)n2)c1)c1ccccc1
  -1.5%	0.7	-10	3.2	u	x
COc1ccc(CNC(=O)Nc2ccc(C)cc2C)cc1
  3.3%	-1.5	-6	2.9	12%	-1%
O=C(O)c1cccc(NS(=O)(=O)c2ccc(-c3ccc(S(=O)(=O)Nc4cccc(C(=O)O)c4)cc3)cc2)c1
  -11%	0.9	-9	-8.3	5%	-1%
CN1CCc2nc3sc(C(=O)Nc4cccc(C#N)c4)c(N)c3cc2C1
  -10.0%	0.5	3	x	x	x
CCOC(=O)c1ccc2c(c1)N(Cc1ccccc1C)C(=O)c1ccccc1S2=O (stereo unspecified)
  0.3%	3.7	-19	3.5	-10%	-26%
COC(=O)c1sc(S(=O)(=O)Nc2c(C)nn(C)c2C)c(C(=O)OC)c1C
  x	0.7	0	x	1%	8%[15.4 µM]
CCn1c(SCC(=O)N2CCc3ccccc32)nnc1-c1ccncc1
  -2.7%	0.0	-20	0.4	1%	3%
NC1=NC(=O)C2(COC(c3ccccc3Cl)OC2)S1 (stereo unspecified)
  -1.1%	2.1	-2	0.5	16%	26%
CN1CCN(C(=O)c2ccc(N3CCCC3=O)cc2)CC1
  1.3%	-0.4	8	4.3	14%	10%
COc1ccccc1C(=O)Nc1ccc(-c2nnc(SCC(=O)O)n2C)cc1
  -3.4%	-0.2	-15	0.9	3%	27%

# (further entries)
# Order of results: ClpP mod	TRPML1 ag	TRPML1 blocker	Menin MLL FP FL	gsp antag	gsp ag
COc1ccccc1N1CCN(c2cc(=O)n(Cc3ccc(F)cc3)c(=O)[nH]2)CC1
  -2.0%	-0.1	-8	0.5	8%	3%
O=C(NCc1cccnc1)Nc1ccc(Br)cc1Cl
  1.8%	-0.2	2	x	-3%	1%
COc1ccc(OC)c(CC(=O)Nc2ccc3c(c2)c(=O)n(C)n3Cc2cccc(C(F)(F)F)c2)c1
  3.8%	-0.4	18	x	x	x
COc1ccccc1/C=C/C(=O)Nc1ccc(N2CCOCC2)cc1
  x	-1.1	-11	0.4	12%	9%[15.4 µM]
Cc1ccc2cc(C(c3nnnn3CC3CCCO3)N3CCc4ccccc4C3)c(=O)[nH]c2c1 (stereo unspecified)
  -8.5%	-0.5	-4	0.5	-5%	-16%
CCOc1ccc2nc(N3CCN(C(=O)CS(=O)(=O)c4ccc(F)cc4)CC3)sc2c1
  1.2%	1.5	-8	x	x	x
O=[N+]([O-])c1cccc(S(=O)(=O)NCC2CC3CCC2C3)c1 (stereo unspecified)
  0.3%	-1.8	17	-3.5	13%	-6%[15.4 µM]
COc1ccc(N2CCN(CCNC(=O)c3c(C)cc(=O)oc3C)CC2)cc1
  -11%	0.3	-28	3.3	-13%	-6%
CCc1ccc(-c2cc3c(=O)n(CC(=O)NCCN4CCCCC4C)nc(C)n3n2)cc1 (stereo unspecified)
  -6.6%	-0.3	2	1.4	1%	-44%[inhibitor]
COc1ccc(OC)c(CN2CCN(Cc3cc(=O)oc4cc(O)ccc34)CC2)c1
  x	-0.1	4	2.4	-10%	18%
COc1cccc(CN(C)C(=O)C2CCN(S(=O)(=O)c3ccc(C)cc3)CC2)c1OC
  -2.8%	0.3	-2	x	-8%	-36%[inhibitor]
COc1ccc(N(CC(=O)N/N=C/c2ccc(OC3CSC3)cc2)S(=O)(=O)c2ccccc2)cc1
  -6.7%	1.2	-7	7.8	-19%	-10%
Cc1sc2ncnc(SCC(=O)N3c4ccccc4Sc4ccc(Cl)cc43)c2c1C
  -2.1%	0.1	6	u	17%	u
Cc1oc(-c2ccoc2)nc1CN(Cc1ccccc1)CC1CC1
  -0.8%	3.5	-8	0.4	0%	13%
CCOC(=O)/C(C)=C1\NC(C)(C)Cc2ccccc21
  -1.2%	-0.3	-1	0.4	3%	1%
O=C(NC1CCCCC1)[C@@H]1CC=C[C@@H]2CCN(C3CCCCC3)C(=O)[C@@H]21
  -1.9%&3.4%	0.2&-1.0	-15	x	11%	x
O=C(c1cc([N+](=O)[O-])ccc1Cl)N1CCN(c2ccccn2)CC1
  x	3.3	11	-2.3	13%	0%[15.4 µM]
Cc1ccc(-n2cc(C(=O)c3ccc4ccccc4c3O)cn2)cc1
  -0.1%	3.5	7	7.4	12%	-6%
CCOC(=O)c1[nH]c(C)c(CCC(=O)N2CCN(c3ccccc3)CC2)c1C
  2.3%	-0.5	0	x	x	x
O=c1c(Cl)c(N2CCCCC2)cnn1-c1nc2ccccc2[nH]1
  -2.0%	0.0	0	6.0	-10%	-21%

# Additional compounds.
# Order of results: ClpP mod	TRPML1 ag	TRPML1 blocker	Menin MLL FP FL	gsp antag	gsp ag
Cc1cccc(-n2ncc3c(NCc4cccs4)ncnc32)c1
  -25%	0.7	-7	-0.2	-11%	-49%[inhibitor]
Cc1cc(C(=O)N(C)C2CCCCC2)no1
  -2.0%	0.2	1	x	6%	4%
O=C(CN1C(=O)C2C3C=CC(C3)C2C1=O)Nc1cccc2c1CCCC2 (stereo unspecified)
  -0.5%	-0.4	-6	u	3%	-1%
COc1ccc(S(=O)(=O)Nc2cccc(C)c2C)c2cccnc12
  x	0.5	1	1.4	-15%	-23%
O=C(Nc1cccc2ccccc12)N(c1ccccc1)c1ccccc1
  -26%	1.3	8	x	-19%	9%
CCOC(=O)COc1c(OC)cc(Cl)cc1C1Nc2ccccc2C(=O)N1c1cccc(C)c1 (stereo unspecified)
  28µM*	1.1	4	2.9	-18%	2%
Cc1cccc(C)c1OCc1nc2ccccc2c(=O)n1/N=C/c1ccc(OCC(=O)O)cc1
  0.4%	-0.9	-16	-0.8	-8%	2%[15.4 µM]
CCCCNC1=CC(=O)C(NCCCC)=CC1=O
  x	1.4	-2	x	-6%	-37%[inhibitor]
Cc1cccc(NC(=O)c2ccc(OCC3CCCO3)cc2)c1C (stereo unspecified)
  0.7%	-0.5	-2	4.7	8%	-2%
O=[N+]([O-])c1ccc(CN2CCC(Cc3ccccc3)CC2)cc1
  -0.1%	x	x	-1.4	3%	-57%
Cc1ccc(-n2ncc(C(=O)NCc3cccs3)c2C2CCN(C(=O)OC(C)(C)C)CC2)cc1
  -2.2%	1.2	-13	x	x	x
Cc1cc(C)nc(NS(=O)(=O)c2ccc(NC(=O)C(C)C)cc2)n1
  -0.7%	-0.5	-7	-3.5	-5%	-39%[inhibitor]
